Source: PubChem
Rce1 inhib: yeast Ras-converting enzyme inhibition; Q03530; yeast membranes, quenched prenylated peptide cleavage fluorescence; calls only; actives 0.27% (n = 290,000); AID 2563;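 active means fall in fluorescence gain of 50% or more versus controls, with final raw signal at or below 3038400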;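 further: plate controls were neutral control wells for no effect and wells lacking membranes for full effect; tested at 10 µM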
Target sequence (Q03530 whole entry, looked up): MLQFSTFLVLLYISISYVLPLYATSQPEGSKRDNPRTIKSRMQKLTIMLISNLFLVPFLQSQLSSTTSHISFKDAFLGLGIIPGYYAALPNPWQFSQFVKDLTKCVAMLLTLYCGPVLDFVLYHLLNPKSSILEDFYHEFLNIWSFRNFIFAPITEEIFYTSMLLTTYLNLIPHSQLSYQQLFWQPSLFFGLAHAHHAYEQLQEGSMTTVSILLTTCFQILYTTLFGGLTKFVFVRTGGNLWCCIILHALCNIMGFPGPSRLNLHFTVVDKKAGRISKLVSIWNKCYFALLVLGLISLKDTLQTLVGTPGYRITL
eIF4H inh: inhibitors of RNA binding by human eIF4H. Q15056. actives 0.94% (n = 290,000). AID 2012. eIF4H fluorescence polarization binding assay. inhibition, % at 35 µM;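 active means 50% or more with normal probe brightness, or confirmed in later tests; about a fifth of its hits are not listed in these tables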;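 further: calls also rest on retests at 20 µM and on dose response follow-up; 0% = protein and probe with vehicle and 100% = probe without protein; strong numbers were not always called active; many hits fall short of the cut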
Yeast UUG start: modulators of start codon recognition fidelity in yeast | AID 602363 | activity score, % at 18.7 µM | S. cerevisiae UUG-firefly luciferase reporter, luminescence/redox ratio | actives 0.13% (n = 350,000);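 active means replicate mean at a twofold rise or more, about +100% in these data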;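 further: firefly luciferase made from a UUG start codon reports start codon fidelity; reporter light over untreated wells divided by growth signal over untreated wells; some hits fall short of that in this replicate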
Env fusion inh: blocks HIV Env-driven cell-cell fusion; HeLa-JRFL Env/CEM21 cell fusion, luciferase; AID 651610; actives 1.1% (n = 360,000); inhibition, % at 12.3 µM;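 active means mean replicate inhibition score of at least 50 and every replicate individually at or above 50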;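 further: 0% = plate neutral controls and 100% = maraviroc near 300 nM; one replicate is shown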
CSC inhib: cancer stem cell inhibition | inhibition, % at 7.5 µM | actives 1.1% (n = 300,000) | cancer stem cell-like cells viability, luminescence;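 active means mean at 75% or more and at least half the replicates too; tested in HMLE shEcad cells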;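 further: 0% = median of negative and 100% = median of positive control wells; the first replicate is given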
MT1-MMP act inh: MT1-MMP (human) activation inhibition | P50281 | HT1080 RFP-PRO-GFP cells, GFP/RFP ratio fluorescence, overnight; percent of plate control window, DMSO zero | GFP/RFP ratio change, % at 20 µM | actives 0.061% (n = 360,000) | AID 651647;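 active means GFP/RFP ratio change of at least 30% with cell ATP level not reduced by more than half and red fluorescence within 50% of control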; further: strong numbers were not always called active
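Read-out: GFP/RFP fluorescence ratio; Test system: RFP-PRO-GFP reporter HT1080 cells; Compound dosing: single-point 20 µM compound, 1% DMSO; Times: overnight compound exposure at 37 °C.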
PABP FP inh: PABP-poly(A) binding inhibition; actives 1% (n = 290,000); AID 2014; inhibition, % at 35 µM; PABP-poly(A) RNA binding, fluorescence polarization;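 active means 50% or more with normal probe brightness, or confirmed in later tests; about a fifth of its hits are not listed in these tables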;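 further: calls also rest on retests at 20 µM and on dose response follow-up; controls were probe without protein and protein plus probe with vehicle; some compounds called inactive have numbers as strong as hits; many hits fall short of the cut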
MT1-MMP act inh RFP: recorded beside MT1-MMP act inh, whose call it bears; RFP signal change, %; measured here: RFP expression control read;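 0 = vehicle wells; hits needed this value within 50% of zero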
Starred values were filed as active, the others as inactive; i = inactive; . = no result given.

Compound	Rce1 inhib	eIF4H inh	Yeast UUG start	Env fusion inh	CSC inhib	MT1-MMP act inh	MT1-MMP act inh RFP	PABP FP inh
CCOc1ccc(CCNC(=O)COC(=O)c2ccccc2O)cc1OCC	i	-11	0	-16	-7	1	-1	24
COc1cccc(CNC(=O)Cn2ccc3cc(S(=O)(=O)N4CCCCCC4)ccc32)c1OC	i	-7	-9	11	-17	-1	-13	3
Cc1cccc2cc(CN(CC3CCCO3)C(=O)c3ccco3)c3nnnn3c12 (stereo not drawn)	i	-1	.	.	.	.	.	-6
CNC(=O)COC(=O)c1cc(=O)[nH]c2ccccc12	i	3	-9	-75	-4	11	0	-1
CSc1ncc(Cl)c(C(=O)C(C#N)c2nc3c(C)cc(C)cc3c(=O)[nH]2)n1 (stereo not drawn)	i	8	-15	.	62	-2	1	5
COc1ccc(C)cc1NC(=O)C(Sc1nnc(Nc2cc(C)ccc2OC)s1)c1ccccc1 (stereo not drawn)	i	-9	-3	21	9	-7	-3	2
O=C(NNC1OC(CO)C(O)C(O)C1O)c1cccnc1 (stereo not drawn)	i	3	.	21	-13	-1	4	-3
CCOc1ccc(S(=O)(=O)N2CCC(C(=O)N3CCCC3)CC2)cc1C	i	5	0	13	5	-1	-9	5
Cc1nc(CNC(=O)c2cc(COc3c(F)cccc3F)on2)cs1	i	-5	14	6	12	14	2	-8
Cc1ccc(-c2nc(CS(=O)CC(=O)NCc3ccc(Cl)cc3)c(C)o2)cc1 (stereo not drawn)	i	-1	-14	6	21	5	2	-1
O=S(=O)(c1ccc(Cl)cc1)c1snnc1-c1ccccc1	i	-8	-19	.	108*	21	-6	-7
O=C(c1cccnc1)N1CCN(C(=O)c2cccs2)CC1	i	4	-17	.	-11	-2	2	0
CC(C)Oc1ccc(N2CC(C(=O)Nc3ccccc3F)CC2=O)cc1 (stereo not drawn)	i	-5	0	.	-7	0	0	-13
N/C(=N\OC(=O)CCCc1ccccc1)c1ccccc1	i	0	-13	-8	3	1	2	-2
O=C(CN1C(=O)NC2(CCCC2)C1=O)Nc1cc(S(=O)(=O)N2CCCCC2)ccc1Cl	.	.	-7	.	-16	4	1	.
CC(=O)c1cccc(NC(=O)CSc2nnc(-c3cccnc3)o2)c1	i	-7	0	-113	4	4	2	-3
C[C@H](CO)N1C[C@H](C)[C@@H](CN(C)S(=O)(=O)c2cn(C)cn2)Oc2c(NS(=O)(=O)c3cn(C)cn3)cccc2C1=O	.	.	-17	-105	.	3	9	.
COC(=O)c1ccc(Oc2nc(N3CCCCC3)nc(N3CCOCC3)n2)cc1	i	7	0	27	-4	-2	-3	1
COCCNC(=S)Nc1cc(OC)c(OC)cc1C#N	i	-8	.	4	.	3	2	8
COc1ccccc1NC(=O)CCS(=O)(=O)c1ccccc1	i	5	.	8	-11	3	0	2
O=C(CCN1C(=O)c2ccccc2C1=O)N1CCN(C(=O)c2ccccc2)CC1	i	-3	22	.	8	4	-1	15
CC1(C)CC(=O)C=C(C(=O)N2CCCC(C(=O)c3cc(F)ccc3F)C2)O1 (stereo not drawn)	.	.	-9	-12	.	1	0	.
COc1ccc(OCCNC(=O)CSc2ccc(C(F)(F)F)cc2[N+](=O)[O-])cc1	i	-4	-20	.	-7	17	2	-12
COc1ccc(-c2nc(S(=O)(=O)c3ccccc3)c(NCCCN3CCOCC3)o2)cc1	.	.	-10	7	-7	-3	1	.
Cc1c(CCOC(=O)c2cc([N+](=O)[O-])cc([N+](=O)[O-])c2)sc[n+]1CC(=O)c1ccc(Br)cc1	i	14	.	2	38	-1	-7	-12

Brought forward from above: two entries; new compounds follow.
Compound	Rce1 inhib	eIF4H inh	Yeast UUG start	Env fusion inh	CSC inhib	MT1-MMP act inh	MT1-MMP act inh RFP	PABP FP inh
COc1ccc(-c2nc(S(=O)(=O)c3ccccc3)c(NCCCN3CCOCC3)o2)cc1	.	.	-10	7	-7	-3	1	.
Cc1c(CCOC(=O)c2cc([N+](=O)[O-])cc([N+](=O)[O-])c2)sc[n+]1CC(=O)c1ccc(Br)cc1	i	14	.	2	38	-1	-7	-12
COc1ccc(OCC(CO)N2CCN(c3ccccc3)CC2)cc1 (stereo not drawn)	.	.	5	-13	.	4	7	.
Cn1cc(C(c2ccccc2OCC(=O)O)c2cn(C)c3ccccc23)c2ccccc21	i	0	-5	20	21	11	15	15
CCn1c(SCC(=O)N(C(C)C)C(C)C)nnc1-c1cc2ccccc2cc1O	i	4	-15	-64	.	4	-6	-6
O=C(CCc1nnc(-c2ccc3c(c2)OCO3)o1)NCCc1ccccc1F	i	-10	10	0	1	-2	1	1
CC(Cc1ccccc1)C(=O)Nc1ccccc1 (stereo not drawn)	i	-6	-18	-6	.	-1	6	3
O=C(Nc1nccs1)C(Br)C(Br)c1ccccc1 (stereo not drawn)	i	-8	-11	-72	26	-2	-4	-4
O=C(c1cccc2ccccc12)C1CCCN(C(=O)CCc2cnccn2)C1 (stereo not drawn)	i	-6	16	17	1	2	-1	-2
O=C1C2CCCN2C(c2ccccc2F)N1c1ccc(F)cc1 (stereo not drawn)	i	-5	-4	-22	1	-7	-6	37
O=C(O)CSc1nnc(-c2ccc(Cl)cc2Cl)n1Cc1ccccc1	i	-18	-13	-24	-3	2	3	-12
Cc1cccc(C(=O)NC2CCN(C(=O)N3CCOCC3)CC2)c1	i	-11	-7	-58	-7	-1	1	5
CC(C)CC1C(C#N)=C(N)Oc2n[nH]c(-c3ccccc3)c21 (stereo not drawn)	i	-4	-15	-8	22	-3	4	11
CCCCC[C@@H]1C=C(C(=O)O)[C@H](c2ccc(C)cc2)N1S(=O)(=O)c1ccc(C)cc1	.	.	-6	2	.	4	0	.
CCN(CC)c1ccc(CN2CCC(C(=O)NCc3ccc(C)cc3)CC2)cc1	i	11	.	12	-15	5	-1	5
Cc1ccc(-c2nn(-c3cccc(F)c3)cc2CNCc2cccnc2)o1	i	-5	-1	-7	-3	-17	4	-8
CCOC(=O)c1ccccc1NC(=O)c1cc2sccc2n1C	i	-3	.	-91	.	1	0	4
Cn1c(CC(=O)NNC(=O)c2cncc(Br)c2)nc2ccccc21	.	.	-28	.	10	-1	5	.
CCc1ccn2cc(-c3cc(-c4ccccc4)no3)nc2c1	i	1	-63	2	29	4	-24	-5
CC(=O)N1CCN(CC(=O)Nc2ccccc2C(=O)Nc2ccccc2)CC1	.	.	-11	-9	-17	-2	5	.
Cc1cc(Cl)ccc1N(CC(=O)NCCSCc1ccco1)S(C)(=O)=O	i	2	-10	8	6	-1	3	6
CCNc1nc(NCC)nc(SCCOC(=O)Nc2ccccc2)n1	i	-3	2	.	0	2	-8	-7
C=CCN1C(=O)N(CC=C)c2cccc3cccc1c23	i	28	6	9	-17	1	-1	24
O=C(O)[C@]1(S(=O)(=O)c2ccccc2)C[C@@H]2ON=C(c3cccc(Br)c3)[C@@H]2C1	i	-5	-4	-8	4	-1	-3	9
O=[N+]([O-])C(=C1Nc2ccccc2N1)C(Cl)=C(Cl)Cl	i	-6	-41	-4	-3	15	54	6
O=C(OCC#CCSc1nc2ccccc2s1)c1ccco1	i	8	-10	-5	-5	-5	-1	2
COc1cccc(CC2(CO)CCCN(Cc3cc4ccccc4[nH]3)C2)c1 (stereo not drawn)	i	0	.	22	-5	-2	-1	-7
COc1ccc(NC(=S)N2CCc3ccccc32)cc1OC	i	-4	-13	-39	-7	0	4	1
Cc1ccccc1NCC(=O)N/N=C/C(Br)=C/c1ccccc1	i	-6	5	.	14	2	-1	-9
CN(C)C1(CNC(=O)C2CCC(=O)N(Cc3ccc(Cl)cc3)C2)CCCCC1 (stereo not drawn)	i	-8	0	8	7	-4	4	0
CC(=O)Nc1ccc(NC(=O)C(C)OC(=O)CCCOc2ccc(Cl)cc2C)cc1 (stereo not drawn)	i	.	19	6	-11	0	-2	.
N#Cc1cccc(NC(=O)c2cc(C3CCCCN3C(=O)CCCc3ccccc3)on2)c1 (stereo not drawn)	.	.	-11	-27	.	-2	-5	.
Cn1c(=O)c2c(nc(NCc3ccccc3)n2CC(=O)NCc2ccccc2)n(C)c1=O	i	-8	.	.	-34	0	-3	14
COc1cc(C2NC(=O)NC(C)=C2C(C)=O)cc(OC)c1OC (stereo not drawn)	i	1	.	-3	-22	-7	-7	-1
CCCSCCCNC(=O)c1ccc(NC(=O)C2=CSCCO2)cc1	i	-13	-20	1	11	-1	2	3
O=C(Nc1cc(Cl)ccc1-n1cncn1)c1cn2ccccc2n1	i	.	.	-15	-15	-2	0	.
Cc1cc(OC(C)C(=O)Nc2cccnc2)ccc1Cl (stereo not drawn)	i	-9	-21	11	4	3	-3	0
COc1ccc(C2CC(=O)C=C(O)C2)cc1 (stereo not drawn)	i	-10	.	-12	0	2	5	29
CCOC(=O)C1CCCN(C(=O)c2cccc(S(=O)(=O)N3CCOCC3)c2)C1 (stereo not drawn)	i	14	-17	2	-7	0	-1	4
Cc1nc2ccccc2c(=O)n1Nc1cccc(Cl)c1	i	0	.	-81	-4	11	2	4
COc1ccc(C(=O)NC(CCSC)C(=O)NCc2nnc3ccccn23)cc1 (stereo not drawn)	.	.	-20	-16	.	8	0	.
COc1ccc(C(=O)Cn2c(NCCO)nc3ccccc32)cc1	i	-8	0	6	-14	-5	-5	-1
CC12CN3CCN(CC(C3)/C1=N/NC(=O)Nc1ccccc1)C2	i	-16	.	-5	0	-14	-6	-5
C/C(COc1ccccc1)=N\NC(=O)c1nnn(-c2nonc2N)c1CSc1ccccc1	i	2	-14	11	-6	1	5	-6
CCOC(=O)N1CCN(S(=O)(=O)c2ccc3c(c2)CCN3C(=O)C2CCC2)CC1	i	1	-4	.	-16	2	-4	-5
CC(Nc1n[nH]c(=S)[nH]c1=O)C(=O)OCc1ccccc1 (stereo not drawn)	i	-5	-9	0	-13	.	.	15
CC(C)NC(=S)NC(c1ccccc1)(c1ccccc1)c1ccccc1	i	4	-17	32	25	3	-12	4
O=C(O)Cc1cccc2ccccc12	.	.	-12	.	-5	-1	6	.
Cn1ccc(C(=O)NC(=S)Nc2ccc([N+](=O)[O-])cc2O)n1	i	-1	-19	-40	7	4	1	15
COc1ccc(-c2nnn(CC(=O)N(CCO)C(C(=O)NC3CCCC3)c3ccc(F)cc3)n2)cc1 (stereo not drawn)	i	0	-1	12	15	-5	-5	-2
CCOC1=C2[C@H](c3ccc(Cl)cc3)N(S(=O)(=O)c3ccc(C)cc3)C[C@H]2n2c(=O)n(-c3ccccc3)c(=O)n2C1	.	.	-15	-53	.	2	0	.
COC(=O)c1ccccc1NC(=O)c1nc2nc(C)cc(C)n2n1	i	8	3	.	-7	-7	3	10

Continued.
Compound	Rce1 inhib	eIF4H inh	Yeast UUG start	Env fusion inh	CSC inhib	MT1-MMP act inh	MT1-MMP act inh RFP	PABP FP inh
COCCN1CC(=O)N2C(c3cccc(C)c3)c3[nH]c4ccccc4c3C[C@H]2C1=O (stereo partly drawn)	i	-13	.	16	-10	-3	-6	6
O=S(=O)(c1ccc(-c2cnc(C3CC3)o2)cc1)N1CCN(c2ccccc2)CC1	i	1	-10	-1	-9	-2	-4	4
CC#CCN(Cc1ccco1)C(=O)c1ccc(OC2CCN(Cc3ccccn3)CC2)cc1	i	0	-4	11	3	-1	4	7
Cc1occc1C(=O)n1nnc2ccccc21	i	4	.	26	12	.	.	9
c1ccc(NCCc2ccccn2)cc1	.	.	-6	-28	.	-1	3	.
CCn1nc(NC(=O)c2cccnc2)c2cc3cccc(C)c3nc21	i	5	3	.	-3	.	.	-3
CC(C)Oc1ccc(/C(O)=C2/C(=O)C(=O)N(CCN3CCOCC3)C2c2ccccc2)cc1 (stereo not drawn)	i	-4	-12	.	-14	0	1	8

These rows are one share of the data; the hit share may differ from the screen's.
